# Screening data from PubChem.
# VACV mCherry inh: inhibitors of vaccinia virus infection (mCherry reporter signal); Vaccinia virus mCherry reporter infection, fluorescence; about a quarter of the inactives have no number; Potency, µM (titrated, usually from 36.5 µM), without a hit: at the highest dose activity change, negative = inhibition, usual class: inhibitors; actives 0.63% (n = 310,000); AID 720579; active = well fitted inhibition curve with a large enough effect; inconclusive = small, poorly fitted or top-dose-only effect; inactive = no such curve, though single readings can be large or run the other way; tested in A549 cells; further: nearly all actives have a fitted effect of over 35% in size; inactives centre near -10
# Vaccinia Venus: vaccinia inhibition (Venus reporter) | Vaccinia virus Venus reporter expression, fluorescence | Potency, µM (series often up to 36.5 µM), for inactives: at the highest dose activity change, negative = inhibition, actives largely listed as inhibitors | actives 0.46% (n = 330,000) | AID 720580; active means well fitted inhibition curve with a large enough effect; inconclusive means small, poorly fitted or top-dose-only effect; inactive means no such curve, though single readings can be large or run the other way; tested in A549 cells; further: nearly all actives have a fitted effect of over 30% in size; inactives centre near -10
# Starred values were filed as active, the others as inactive; i = inactive; ? = inconclusive; nt = not tested or not shown; [ ] = another dose, or the depositor's remark. On the % scale 0 is the no-effect control and ±100 the full control effect; potency means the concentration at half of the fitted maximal effect.
SMILES	VACV mCherry inh	Vaccinia Venus
CC(C)C[C@H]1CNC(=S)N1C[C@H]1CCCN1C[C@H](CC(C)C)N1C[C@H](Cc2ccc(O)cc2)N(CC2CCCCCC2)C1=S	6.7%	-10.3%
CN(C)C1CCCCC=CC(=O)NC1 (configuration not stated)	-13.8%	-22.3%
O=S(=O)(Nc1nc(SCc2ccc(Cl)cc2)n[nH]1)c1ccc(F)cc1	?	?
O=C(NCc1cccs1)c1ccc2c(c1)sc1nc(-c3ccccc3)cn12	-23.0%	-14.9%
C[C@]12CC[C@H]3[C@@H](C[C@H](F)C4=CC(=O)CC[C@@]43C)[C@@H]1CC[C@@H]2O	-16.5%	-11.1%
O=C(Oc1ccc(Cl)cc1)N1CCOCC1	-12.0%	-1.4%
COc1ccc(NC(=O)C(Sc2ccccc2)c2ccccc2)c(OC)c1 (configuration not stated)	?	-21.4%
COC(=O)C1=C(c2ccccc2OCc2ccccc2)C[C@@H]2CC[C@H]1N2C(=O)NCc1ccc(OC)cc1	i	-16.9%
O=C1NC(=O)N(Cc2ccccc2)C(=O)/C1=C\C=C\c1ccco1	i	84.9%[activator]
COc1ccc(CCNC(=O)CSc2nc3ncccc3[nH]2)c(OC)c1	i[7.34 µM]	0.0%[7.34 µM]
CCOC(=O)C(C)/C(C)=N/NC(N)=S (configuration not stated)	22.4µM*	?
Cc1nc2ccccc2n1C(c1cccnc1)c1nc2ccccc2[nH]1 (configuration not stated)	?	10.3%

# Two of the compounds above, as labelled records.
O=C(NCc1cccs1)c1ccc2c(c1)sc1nc(-c3ccccc3)cn12
  VACV mCherry inh = -23.0%
  Vaccinia Venus = -14.9%

C[C@]12CC[C@H]3[C@@H](C[C@H](F)C4=CC(=O)CC[C@@]43C)[C@@H]1CC[C@@H]2O
  VACV mCherry inh = -16.5%
  Vaccinia Venus = -11.1%

# Continuation.
SMILES	VACV mCherry inh	Vaccinia Venus
O=C(NCc1ccccc1CN1CCCC1)c1ccc(Cl)c(S(=O)(=O)N2CCCC2)c1	-10.4%	-23.4%
CC(=O)Nc1nc(-c2ccccc2)nc(-c2ccccc2OC(C)=O)n1	?	?
O=C(Cn1[nH]c(=O)c2ccccc2c1=O)Nc1cccnc1	-1.7%	8.9%
CN(C)c1ccc(C2N(c3ccc(F)cc3)C(=O)C3CCCN32)cc1 (configuration not stated)	-12.0%	-2.8%
Cc1cccc(N2CCN(Cc3cc(=O)oc4cc(C)ccc34)CC2C)c1 (configuration not stated)	-3.9%	-1.6%
Cc1ccc(CN2CCc3nc(SCC(=O)Nc4cccc(C)c4C)[nH]c(=O)c3C2)cc1	-2.5%	2.5%
CN(C)c1nc2ccccc2n(C)c1=O	i	-11.0%
COCCN(C(=O)COC(=O)CCc1ccc(OC)cc1)c1c(N)n(Cc2ccccc2)c(=O)[nH]c1=O	-19.4%	-7.7%
Cc1cccc(C)c1OCC(=O)NCC1(N2CCOCC2)CCCCC1	-23.1%	-25.0%
Cc1ccc(C)c(NC(=O)c2cc(-c3cc(C)cc(C)c3O)n[nH]2)c1	?	-18.6%
O=C(c1cnn2cccnc12)N1CCN(Cc2ccc3c(c2)OCO3)CC1	-20.1%	-2.4%
NC(=O)CC(NC(=O)Cc1cccc2ccccc12)c1ccc(NC2CCN(Cc3ccccc3)CC2)c([N+](=O)[O-])c1 (configuration not stated)	-29.0%	-16.1%
Cc1noc(C)c1COC(=O)c1cc(F)c(F)cc1Cl	i	-12.5%
Cc1ccc(CC(SCc2ccccc2)C(=O)O)cc1C (configuration not stated)	18.7%	1.8%
COc1ccc(-c2nsc(SCC(=O)NCc3ccc4c(c3)OCO4)n2)cc1	i	-3.9%
C=CCn1c(SCc2nc3sc(C(=O)O)c(C)c3c(=O)[nH]2)nnc1-c1ccc(F)cc1	-1.3%	-12.9%
CC(C(=O)c1ccc(Br)cc1)[n+]1cccc(NC(=O)c2ccccc2)c1 (configuration not stated)	i	12.1%
C[C@H]1CCC/C=C/C2C[C@H](O)C[C@H]2[C@H](O)/C=C/C(=O)O1 (some centres not stated)	-36.0%[60.7 µM]	-44.8%[60.7 µM]
Cc1ccccc1COc1ccc(-c2nnn(CC(=O)O)n2)cc1	-3.3%	-4.8%
CCN(CC)CCCn1c2c(c(SCC(=O)N3CCc4ccccc43)nc1=O)CCC2	-30.0%	-16.8%
CC(C(=O)Nc1cccc(S(=O)(=O)N2CCOCC2)c1)N1CCN(c2ccc(F)cc2)CC1 (configuration not stated)	?	14.3%
CCN(CC)C(=O)c1ccc2c(c1)N(Cc1ccccc1F)C(=O)c1ccccc1S2=O (configuration not stated)	2.7%	-2.0%
COc1ccc(N(C(=O)c2ccccc2F)S(=O)(=O)c2ccc3c(c2)n(C)c(=O)n3C)cc1	-4.7%	-1.8%
COc1ccc(-n2nc(C(=O)Nc3ccc4c(c3)OCO4)c3ccccc3c2=O)c(OC)c1	-4.3%	-18.5%
COc1cccc(NC(=O)c2cc3c(=O)n(Cc4cccnc4)ccc3nc2C)c1	-4.0%	-14.7%
C/C(=N\O)C(=O)C(CN1CCCCC1)CN1CCCCC1	-3.9%	-4.3%
Cc1ccc(-c2nnn(CC(=O)N3CCCCC3)n2)c(-n2cnnn2)c1	-13.9%	-2.7%
COc1cccc(CNCC(O)COc2ccc(C(=O)c3ccccc3)cc2)c1 (configuration not stated)	i	-10.7%
COc1ccc2c(c1)c(=O)c(C(=O)c1ccc(F)cc1)cn2CC(=O)Nc1ccc2c(c1)OCO2	-0.4%	0.3%
COc1ccc(Cl)cc1NC(=O)CSc1nnc(Cc2ccc(C)cc2)c(=O)[nH]1	i	-10.1%
Cc1ccc(C)c(N2CCN(C(=O)c3cc(S(=O)(=O)N4CCOCC4)ccc3F)CC2)c1	-16.0%	-20.2%
Cc1nc2cc(NC(=O)N3CCCCC3)ccc2n1C	nt	-8.5%
Cc1cc(C)c(NC(=O)NC(=O)c2ccc(F)cc2)c(C)n1	-8.4%	-11.8%
O=C(Oc1ccccc1N1C(=O)CCC1=O)c1ccco1	i	-13.0%
O=C(c1sccc1Br)N1CCN(Cc2ccc3c(c2)OCO3)CC1	-17.1%	-14.6%
CN(C)C(=O)CCc1ccc2c3c([nH]c2c1)[C@]1(CCC2CCCC2)[C@@H](C(=O)N2CCOCC2)C[C@H](CC(=O)NCCN2CCOCC2)C(=O)N1CC3	-11.3%	-8.0%
CCCc1cc(=O)[nH]c(SCC(=O)Nc2oc(C)c3c(C)n[nH]c(=O)c23)n1	-6.3%	1.7%
COc1cc(/C=N/NC(=O)c2c(C)nnn2-c2nonc2N)ccc1O	-8.4%	-11.7%
CN(Cc1ccccc1)c1cc2c(c3c1ccn3C)C1CCC2C1 (configuration not stated)	i	-2.0%
CCOCCn1cnc2sc(C(=O)Nc3ccccc3C(=O)OC)c(C)c2c1=O	-9.9%	-0.7%
COc1ccc(NC(=O)Nc2cccc3c2O[C@H](CN(C)C(=O)Nc2ccc4c(c2)OCO4)[C@@H](C)CN([C@H](C)CO)C3=O)cc1	15.1%	-5.6%
O=C(O)c1ccc2c(c1)C(=O)N(c1ncccn1)C2=O	-3.8%	-6.2%
Cc1ccc(C(=O)N/N=C2\CCc3ccccc32)c(C)c1	-0.8%	-12.0%
Cc1sc2nc3n(c(=O)c2c1C)NC(=O)CC3	nt	14.9%
O=C(NCc1ccccc1)c1ccc(Br)o1	i	3.7%
CC(=O)c1c(N=CN(C)C)nc(C)nc1-c1ccccc1	-10.5%	-8.8%
O=C(COC(=O)COc1ccccc1F)Nc1cccc(S(=O)(=O)N2CCCCC2)c1	-0.2%	-9.4%
O=C(CCn1ccnc1)Nc1cc(Cl)ccc1O	-2.1%	-18.6%
COc1ccc(S(=O)(=O)N(CC(=O)N/N=C/c2cccs2)c2cc(C)cc(C)c2)cc1OC	-5.7%	-8.4%
COc1cc(COc2ccc3c(C)c(Cc4ccccc4)c(=O)oc3c2C)cc(OC)c1OC	-18.1%	-9.9%
Cc1ccc2cc3cc(C(=O)N4CCCCCC4)oc3nc2c1	?	?
CN1C(=O)/C(=C/C=C2/CCCN2C)N(C)C1=S	-25.6%	-8.0%
CCOc1ccccc1NC(=O)Cn1c(=O)sc2ccccc21	-6.6%	-8.8%
CCCCNC(=O)O[C@@H]1C[C@H]2CCC(=O)N3CC[C@@H](C1)[C@@H]23	i	-6.5%
Cc1ccc(-n2c(C)nn(-c3ncc(C(F)(F)F)cc3Cl)c2=O)cc1	-16.8%	-20.0%
CCN(CC)S(=O)(=O)c1ccc(Cc2ncc(C(F)(F)F)cc2Cl)s1	-22.5%	-21.7%
CCc1nccn1S(=O)(=O)c1cc(C)c(OC)cc1C	i	-5.0%
CCCOc1ccc(C(=O)OCC(=O)c2c(N)n(C)c(=O)n(C)c2=O)cc1OCC	3.6%	-11.6%
Cn1nc(C(=O)NC(C)(C)C)c2ccccc21	-7.9%	-8.9%
CCO[C@@H]1OC(C(N)=O)=C[C@H](c2ccccc2)[C@H]1CCCO	i	-9.9%

# Next results:
SMILES	VACV mCherry inh	Vaccinia Venus
CCOC(=O)/C(=C\c1ccccc1)C(=O)c1cc(C(C)=O)c(Nc2ccccc2)s1	-10.6%	-2.0%
CC(C)(C)c1ccc(S(=O)(=O)N2CCCC2C(=O)NC2=NCCS2)cc1 (configuration not stated)	-15.8%	-6.6%
Cc1ccccc1NC(=S)NC1CC2CCC(C1)N2Cc1ccco1 (configuration not stated)	i	-11.5%
COC(=O)c1ccc(-n2nnc(-c3nc(-c4ccccc4Cl)no3)c2C)cc1	-6.2%	-3.5%
Cc1nn(-c2ccccc2)c2nc(Cl)c(C(=O)O)cc12	i	1.0%
COc1ccccc1C(=O)NCCC(=O)N1CC(=O)Nc2ccccc21	nt	-13.4%
COc1ccc(CNc2ccccn2)c(O)c1	i	-4.8%
O=C(COc1c(F)c(F)c(C(F)(F)F)c(F)c1F)Nc1ccc(N2CCOCC2)c(Cl)c1	i	-17.7%
COCCNC(=O)C1(C)CCCN(C(=O)c2ccc(OC)c(OC)c2)C1 (configuration not stated)	i	-7.6%
CC(C)CCNC(=S)Nc1ccccc1F	-26.3%	-18.6%
O=C(NCC(c1ccco1)N1CCOCC1)C1CCCCC1 (configuration not stated)	-13.8%	-2.1%
COc1ccccc1NC(=O)CSc1n[nH]c(-c2ccccn2)n1	?	-29.0%
O=C(Nc1cccc(NC(=O)c2cccs2)c1)c1ccc(Br)cc1	i	?
N#CCCN(C(=S)NC(=O)c1cccs1)c1ccccc1F	i	-19.1%
CC(C)(C)n1nc(-c2ccc(F)cc2)c2c(N)ncnc21	nt	1.3%
CC(=O)c1ccc(NC(=O)CSc2nnc(C3CC3)n2C)cc1	-11.5%	-9.7%
Cc1cccc(NC(=O)CSCC(=O)N(C)CCOc2ccc(Cl)cc2)c1	-1.5%	-18.6%
CC(=O)C1CCC2C3CC(O)C4=CC(=O)CCC4(C)C3C(=O)CC12C (configuration not stated)	i	-8.6%
Nc1nc2ccccc2n1/N=C/c1ccc([N+](=O)[O-])s1	?	?
COc1cccc(NC(=O)CN2C(=O)NC3(CCCCCC3)C2=O)c1	-16.0%	-6.9%
CC(NC(=O)CSC(=S)N1CCCC1)c1ccc(S(N)(=O)=O)cc1 (configuration not stated)	-1.0%	1.6%
O=C(NCc1ccccc1)C(=O)NCC(c1cccnc1)N1CCN(c2ccccc2)CC1 (configuration not stated)	-14.4%	-20.7%
COc1ccc(/C=C/C(=O)c2c(O)c(OC)c3occc3c2OC)cc1OC	-12.4%	-23.3%
COc1ccc2oc(-c3ccccc3[N+](=O)[O-])cc(=O)c2c1	?	-16.4%
COc1ccc(C2=Nc3ccc(C)cc3NC(c3ccc(Cl)cc3)=N2)cc1	i	-8.3%
CC(C)N1CCc2c(sc(NC(=O)c3ccc(S(=O)(=O)N4CCc5ccccc54)cc3)c2C(N)=O)C1	-19.7%	-22.5%
CCc1nc2ccc(C(=O)NCc3cccs3)cn2c1N(C)Cc1nccs1	8.8%	-4.7%
COC(=O)C1CCN(C(=O)Cc2ccc(C)cc2)CC1	-0.8%	-5.1%
O=C(NCC12CC3CC(CC(C3)C1)C2)c1cc2nc(-c3ccc(Cl)cc3)cc(C(F)(F)F)n2n1	0.7%	-3.1%
O=C(CSc1ccc(-c2cccs2)nn1)c1cccs1	i	-12.4%
CCOC(=O)CSc1nnc(-c2ccccc2NC(=O)c2ccccc2)o1	-4.9%	1.5%
Cc1cc2cc(NC(=O)c3ccco3)ccc2[nH]1	nt	-16.6%
C/C(=N\NC(=O)c1cc(-c2ccc(Br)s2)[nH]n1)c1ccncc1	-0.5%	0.0%
Cn1nnc(NC(=O)c2ccccc2F)n1	nt	-10.6%
CCOc1cc2[nH]c(=S)n(Cc3ccc(C(=O)NCCCN4CCOCC4)cc3)c(=O)c2cc1OCC	4.9%[7.34 µM]	0.0%[7.34 µM]
CCS(=O)(=O)n1nc(-c2ccccc2)nc1SCc1ccccc1	-8.3%	-23.2%
CC1(C)Cc2c(sc3nn[nH]c(=O)c23)CO1	-7.3%	-14.3%
COc1cc(C(=O)NNC(=O)c2cccc(Cl)c2)ccc1OCC(=O)N1CCOCC1	-2.5%	1.3%
CCN(CC)C(=O)Cn1cc(SCC(=O)NC2CCCC2)c2ccccc21	-7.3%	-2.2%

# An unsorted share of the library; overall some 0.82% were active at least once.
